Screens deposited in PubChem BioAssay by Johns Hopkins Ion Channel Center.
Kir21 inh – inhibitors of mouse Kir2.1 inward-rectifier potassium channel | P35561 | HEK293-Kir2.1, FluxOR thallium flux fluorescence; active compounds read low | B-score at 10 µM | actives 0.85% (n = 310,000);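 active = fluorescence ratio B-score at or below minus 3 SD of library scores, with starting-brightness B-score within 2 SD, cut at about -4.2 in these data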;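 also: channel flux triggered by added potassium and thallium sulfate stimulus; B-score of peak minus minimum fluorescence over baseline after thallium stimulus; more negative B-score means stronger Kir2.1 block with less thallium influx; some compounds called inactive have numbers as strong as hits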
Target sequence (P35561 whole entry, looked up): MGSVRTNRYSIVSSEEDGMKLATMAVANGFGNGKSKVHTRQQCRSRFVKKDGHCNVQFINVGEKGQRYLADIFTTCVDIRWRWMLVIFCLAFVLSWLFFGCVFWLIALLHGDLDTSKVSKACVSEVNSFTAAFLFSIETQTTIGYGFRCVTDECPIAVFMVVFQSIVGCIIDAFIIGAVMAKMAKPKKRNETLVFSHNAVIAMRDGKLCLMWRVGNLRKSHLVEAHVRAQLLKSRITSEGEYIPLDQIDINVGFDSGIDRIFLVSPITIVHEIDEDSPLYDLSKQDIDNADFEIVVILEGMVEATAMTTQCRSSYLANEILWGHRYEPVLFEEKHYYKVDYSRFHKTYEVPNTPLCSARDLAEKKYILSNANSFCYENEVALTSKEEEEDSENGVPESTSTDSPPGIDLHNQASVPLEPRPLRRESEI
CHT inh – inhibitors of human choline transporter CHT | CHT-expressing cells, membrane potential dye, choline response; active compounds read low | B-score at 10 µM | actives 0.86% (n = 310,000) | AID 488975;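 active = B-score over 3 SD under the library average, and starting fluorescence ratio not unusually high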;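 also: choline stimulus applied at its EC90 after an EC20 pre-addition; B-score computed on integrated fluorescence ratio after choline addition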
Starred values were filed as active, the others as inactive; i = inactive.

1	CCCCCn1c(=O)c(C(=O)Nc2ccccc2)c(O)c2ccccc21
  Kir21 inh: -0.71
  CHT inh: i

2	COc1cc2c(cc1OC)[C@@H]1C(=O)c3ccc4c(c3O[C@@H]1CO2)C[C@H](C(C)C)O4
  Kir21 inh: -0.09
  CHT inh: i

3	CC(C)c1ccc(N2C(=O)NC(=O)/C(=C/C=C/c3ccco3)C2=O)cc1
  Kir21 inh: 0.11
  CHT inh: i

4	CSc1ccc(CN2CCN(c3ccccc3C)CC2)cc1
  Kir21 inh: -1.5
  CHT inh: i

5	CCOC(=O)[C@]1(C#N)[C@@H]2C=CC(C(C)=O)=CN2[C@@H](C(N)=O)[C@@H]1c1ccsc1
  Kir21 inh: -1.6
  CHT inh: i

6	O=C1NC(=O)N(Cc2ccccc2Cl)C(=O)/C1=C/N1CCOCC1
  Kir21 inh: -0.82
  CHT inh: i

7	Cc1ccc(C(=O)NC(O)C(Cl)(Cl)Cl)cc1 (configuration not stated)
  Kir21 inh: 0.19
  CHT inh: i

8	COc1nc2ccccc2nc1N1CCN(C)CC1
  Kir21 inh: -1.7
  CHT inh: i

9	COc1ccccc1-n1c(O)c(C=NC2CC2)c(=O)[nH]c1=O
  Kir21 inh: 2
  CHT inh: i

10	COc1nc2ccccc2c(=O)n1-c1ccc(Cl)cc1
  Kir21 inh: -0.14
  CHT inh: i

11	Cc1ccc2c(c1)C1CN(C)CCC1N2S(=O)(=O)c1ccccc1 (configuration not stated)
  Kir21 inh: -1.3
  CHT inh: i

12	O=C(O)Cn1cc(/C=C2\C(=O)NC(=O)N(c3ccc(Cl)cc3)C2=O)c2ccccc21
  Kir21 inh: -0.83
  CHT inh: i

13	O=C(CF)NC(Nc1cccc2cccnc12)C(Cl)(Cl)Cl (configuration not stated)
  Kir21 inh: -2.2
  CHT inh: i

14	CCN(CC)c1ccc(N=Cc2c(O)n(CCC3=CCCCC3)c(=O)[nH]c2=O)cc1
  Kir21 inh: 0.51
  CHT inh: i

15	O=C(N/N=C/c1c(O)n(Cc2ccc(F)cc2)c(=S)[nH]c1=O)c1ccncc1
  Kir21 inh: 0.22
  CHT inh: i

16	Cc1ccccc1CC(=O)N(CCN(C)C)CC1CCCN(Cc2ccccc2F)C1 (configuration not stated)
  Kir21 inh: -0.67
  CHT inh: i

17	CN1C(=O)C(C2c3ccccc3C(=O)N2Cc2ccc([N+](=O)[O-])cc2)C(=O)N(C)C1=O (configuration not stated)
  Kir21 inh: -0.02
  CHT inh: i

18	C=CCOc1ccc(CC2C(=O)N(C)C(=O)N(C)C2=O)cc1
  Kir21 inh: -0.55
  CHT inh: i

19	CN(CCCCC(=O)/C=N/O)Cc1ccccc1 (tested in a mixture with another compound)
  Kir21 inh: -1.2
  CHT inh: i

20	O=C1C2CCCN2C(c2cccnc2)N1c1ccc(Cl)cc1 (configuration not stated)
  Kir21 inh: -0.11
  CHT inh: i

21	Cc1cc(C)cc(N2C(=O)NC(=O)/C(=C\c3cccn3-c3ccccc3)C2=O)c1
  Kir21 inh: -1.3
  CHT inh: i

22	Cc1nn(Cc2ccccc2)c(Cl)c1C(=O)OCC(=O)NCC1CCCO1 (configuration not stated)
  Kir21 inh: -1.5
  CHT inh: i

23	O=Cc1cn(Cc2ccc(Br)cc2)c2ccccc12
  Kir21 inh: 2
  CHT inh: i

24	CSc1nnc(OC(=O)N(C)C)n1-c1ccc(Cl)cc1
  Kir21 inh: -1.1
  CHT inh: i

25	CCC(=O)N1CC(=O)Nc2ccc(Cl)cc2C1c1ccc(F)cc1 (configuration not stated)
  Kir21 inh: 0
  CHT inh: i

26	COc1ccc(NC(=O)c2cn(CCC#N)nc2-c2cccc([N+](=O)[O-])c2)cc1
  Kir21 inh: -0.43
  CHT inh: i

27	CCOP(=O)(OCC)C(NC(=O)C(C)C)C(Cl)(Cl)Cl (configuration not stated)
  Kir21 inh: -0.05
  CHT inh: i

28	COc1ccc(/C=C2/C(=O)NC(=O)N(C3CCCCC3)C2=O)cc1CSc1ccccn1
  Kir21 inh: 1.2
  CHT inh: i

Reprinted: nos. 5 to 7
5	CCOC(=O)[C@]1(C#N)[C@@H]2C=CC(C(C)=O)=CN2[C@@H](C(N)=O)[C@@H]1c1ccsc1
  Kir21 inh: -1.6
  CHT inh: i

6	O=C1NC(=O)N(Cc2ccccc2Cl)C(=O)/C1=C/N1CCOCC1
  Kir21 inh: -0.82
  CHT inh: i

7	Cc1ccc(C(=O)NC(O)C(Cl)(Cl)Cl)cc1 (configuration not stated)
  Kir21 inh: 0.19
  CHT inh: i

Reprinted at random: three compounds from above.
23	O=Cc1cn(Cc2ccc(Br)cc2)c2ccccc12
  Kir21 inh: 2
  CHT inh: i

2	COc1cc2c(cc1OC)[C@@H]1C(=O)c3ccc4c(c3O[C@@H]1CO2)C[C@H](C(C)C)O4
  Kir21 inh: -0.09
  CHT inh: i

28	COc1ccc(/C=C2/C(=O)NC(=O)N(C3CCCCC3)C2=O)cc1CSc1ccccn1
  Kir21 inh: 1.2
  CHT inh: i

Structures listed so far with an aryl thioether with sulfur outside any ring:
4	CSc1ccc(CN2CCN(c3ccccc3C)CC2)cc1
  Kir21 inh: -1.5
  CHT inh: i

24	CSc1nnc(OC(=O)N(C)C)n1-c1ccc(Cl)cc1
  Kir21 inh: -1.1
  CHT inh: i

28	COc1ccc(/C=C2/C(=O)NC(=O)N(C3CCCCC3)C2=O)cc1CSc1ccccn1
  Kir21 inh: 1.2
  CHT inh: i

This is a subset, and most or all hits are left out here.
